Assay outcomes (PubChem BioAssay)
Rce1 inh = blocks yeast Ras-converting enzyme; yeast membranes, quenched prenylated peptide cleavage fluorescence; calls only; 0.27% of 290,000 active; AID 2563;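 active = fall in fluorescence gain of 50% or more versus controls, with final raw signal at or below 3038400; inconclusive = same 50% fall but final raw signal above 3038400; inactive = fall in fluorescence gain under 50%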;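 note: plate controls were neutral control wells for no effect and wells lacking membranes for full effect; tested at 10 µM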
Target sequence (Q03530 whole entry, looked up): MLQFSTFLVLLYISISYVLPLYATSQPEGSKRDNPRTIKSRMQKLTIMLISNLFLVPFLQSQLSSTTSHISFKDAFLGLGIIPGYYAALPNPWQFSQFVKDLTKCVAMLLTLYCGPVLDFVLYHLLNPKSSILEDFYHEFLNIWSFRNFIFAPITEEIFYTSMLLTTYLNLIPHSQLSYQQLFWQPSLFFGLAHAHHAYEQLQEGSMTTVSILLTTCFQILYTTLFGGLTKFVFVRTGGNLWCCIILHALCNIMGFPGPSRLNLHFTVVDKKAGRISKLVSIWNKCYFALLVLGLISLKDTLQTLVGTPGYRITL
UUG fidelity = yeast start codon fidelity modulation; S. cerevisiae UUG-firefly luciferase reporter, luminescence/redox ratio; AID 602363; 0.13% of 350,000 active; activity score, % at 18.7 µM;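 active = replicate mean at a twofold rise or more, about +100% in these data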;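 note: firefly luciferase made from a UUG start codon reports start codon fidelity; reporter light over untreated wells divided by growth signal over untreated wells; some hits fall short of that in this replicate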
eIF4H FP inh = inhibitors of RNA binding by human eIF4H; 0.94% of 290,000 active; eIF4H fluorescence polarization binding assay; inhibition, % at 35 µM; AID 2012;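 active = 50% or more with normal probe brightness, or confirmed in later tests; inconclusive = above 50% with abnormal brightness, or retests that disagree; inactive = below 50% or failed in later tests; about a fifth of its hits are not listed in these tables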;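 note: calls also rest on retests at 20 µM and on dose response follow-up; 0% = protein and probe with vehicle and 100% = probe without protein; strong numbers were not always called active; many hits fall short of the cut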
HIV Env fusion = blocks HIV Env-driven cell-cell fusion. HeLa-JRFL Env/CEM21 cell fusion, luciferase. inhibition, % at 12.3 µM. 1.1% of 360,000 active. AID 651610;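 active = mean replicate inhibition score of at least 50 and every replicate individually at or above 50; inconclusive = only one of the two criteria met; inactive = mean below 50 and not all replicates reaching 50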;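 note: 0% = plate neutral controls and 100% = maraviroc near 300 nM; one replicate is shown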
PABP polyA inh = PABP-poly(A) binding inhibition; inhibition, % at 35 µM; AID 2014; PABP-poly(A) RNA binding, fluorescence polarization; P11940; 1% of 290,000 active;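 active = 50% or more with normal probe brightness, or confirmed in later tests; inconclusive = above 50% with abnormal brightness, or retests that disagree; inactive = below 50% or failed in later tests; about a fifth of its hits are not listed in these tables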;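 note: calls also rest on retests at 20 µM and on dose response follow-up; controls were probe without protein and protein plus probe with vehicle; some compounds called inactive have numbers as strong as hits; many hits fall short of the cut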
MT1-MMP act inh = blocks activation of human MT1-MMP | P50281 | HT1080 RFP-PRO-GFP cells, GFP/RFP ratio fluorescence, overnight; percent of plate control window, DMSO zero | GFP/RFP ratio change, % at 20 µM | 0.061% of 360,000 active;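 active = GFP/RFP ratio change of at least 30% with cell ATP level not reduced by more than half and red fluorescence within 50% of control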; note: strong numbers were not always called active
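Assay system – RFP-PRO-GFP reporter HT1080 cells · Compound dosing – single dose of 20 µM compound, 1% DMSO final · Incubation – overnight compound exposure at 37 °C · Measure – GFP/RFP fluorescence ratio · Benchmarks – DMSO wells and RFP-L50D-GFP cells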
CSC inhib = cancer stem cell inhibition; cancer stem cell-like cells viability, luminescence; inhibition, % at 7.5 µM; 1.1% of 300,000 active;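 active = mean at 75% or more and at least half the replicates too; inconclusive = mean and replicates disagree; tested in HMLE shEcad cells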;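 note: 0% = median of negative and 100% = median of positive control wells; the first replicate is given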
eIF4H FP inh retest = second read-out of eIF4H FP inh, no call of its own (marks repeat the call); inhibition, %; compound at 20 µM; confirmation average;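 mean of two retest wells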
PABP polyA inh retest = recorded beside PABP polyA inh, whose call it bears; inhibition, %; compound at 20 µM; confirmation repeats;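 mean of two retest wells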
MT1-MMP act inh RFP = also measured in MT1-MMP act inh; calls as there; RFP signal change, %; measured here: RFP expression control read;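 0 = vehicle wells; hits needed this value within 50% of zero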
* marks the source's active call; other numbers are inactive results; i = inactive; ? = inconclusive; · = not tested or not shown.

SMILES	Rce1 inh	UUG fidelity	eIF4H FP inh	HIV Env fusion	PABP polyA inh	MT1-MMP act inh	MT1-MMP act inh RFP	CSC inhib	others
O=C(c1ccc(Cl)c(NC2=NC3CS(=O)(=O)CC3S2)c1)N1CCN(c2ccc(F)cc2)CC1 (stereo unspecified)	i	-15	·	1	·	-3	1	-7
CCC(C)n1c(=S)[nH]c2c(sc3ccc([N+](=O)[O-])cc32)c1=O (stereo unspecified)	i	-9	-4	-5	0	-6	-33	31
O=C(NC1CCCN(c2ccc(C(F)(F)F)cn2)C1)c1ccncc1 (stereo unspecified)	i	-14	-12	-5	6	5	2	-9
Cn1c(COc2ccccc2)nnc1SCC(=O)NC1CCCC1	i	12	-7	-2	-1	1	1	-6
OC[C@@H]1[C@@H](c2ccc(F)cc2)C(c2ccccc2)=NN1c1ccccc1	·	-29	·	71	·	-2	-4	·
O=C(COC(=O)C1CCCN1C(=O)C12CC3CC(CC(C3)C1)C2)c1ccc(Br)cc1 (stereo unspecified)	·	-15	-2	17	39	0	-2	9
CC1(C(=O)Nc2cnc3ccccc3c2)CCN1C(=O)CC(c1ccccc1)c1ccccc1 (stereo unspecified)	·	33	·	-11	·	-1	0	·
CSc1cccc(CN2CCCC(CNC(=O)c3ccc(F)cc3)C2)c1 (stereo unspecified)	i	·	4	15	0	-5	5	0
CC1(C)NC(=O)N(CC(O)COc2ccccc2-c2ccccc2)C1=O (stereo unspecified)	i	6	6	-73	5	-9	-5	6
COc1cc(C2C=C(C34CC5CC(CC(C5)C3)C4)NC(=S)N2)cc(OC)c1OC (stereo unspecified)	i	-34	-9	·	-8	2	-5	-1
COc1cccc(C(Nc2ccccn2)c2oc(CO)cc(=O)c2O)c1 (stereo unspecified)	i	·	3	13	-10	-3	0	-9
CCOC(=O)CNC(=O)CSc1nnc(COc2ccc(Cl)cc2)n1CC	i	-11	-9	·	2	4	4	-16
CC(C)(C)C(=O)Nc1nc2c(c(=O)[nH]1)CCCC2	i	·	10	9	-2	·	·	-2
O=C(N/N=C/c1ccc(OCC2COCCO2)cc1)c1ccc(Br)cc1 (stereo unspecified)	i	·	-5	5	15	0	0	13
O=C(NCCCn1ccnc1)C1CCCN(S(=O)(=O)c2ccc(F)cc2)C1 (stereo unspecified)	·	-14	1	8	-10	-2	3	-13
CCN(CC)CCN1C(=O)C2C(C(=O)Nc3cccc(SC)c3)C3C=CC2(O3)C1C(=O)NC1CCCC(C)C1C (stereo unspecified)	i	-9	1	-1	3	5	7	-13
COc1ccc(Br)cc1CNC(=O)CCC(=O)N1CCSc2ccccc21	i	-1	7	-10	-4	-3	0	-9
CCOc1ccc(N(CC(=O)Nc2ccc(C)c(Cl)c2)S(C)(=O)=O)cc1	i	-4	2	5	-1	4	-3	-11
Cc1cccn2c(=O)c(C=O)c(NCc3ccccc3)nc12	i	-17	-8	11	-2	-1	-8	-13
N#C/C(=C/c1ccc(-c2ccc(Br)cc2)o1)C(=O)NC1CCCCC1	i	-6	-5	9	-14	2	-8	42
COc1ccc(NS(=O)(=O)c2cccc(C(=O)NCc3ccccn3)c2)cc1	i	-51	·	-1	·	-1	-2	-10
CCOc1cc2[nH]c(=S)n(CCCC(=O)NCc3ccccn3)c(=O)c2cc1OCC	i	-25	-20	4	-4	0	-5	2
COc1cc(C(Nc2ccc(S(=O)(=O)N3CCC(C)CC3)cc2)C(=O)NCC2CCCO2)cc(OC)c1OC (stereo unspecified)	i	16	8	-5	-4	8	-6	-1
Cc1ccn(C(=O)c2ccc(NC(=O)CC(C)C)cc2)n1	·	·	1	-2	-11	0	0	-3
COC(=O)CSc1ccc2nnc(CCNS(=O)(=O)c3ccccc3)n2n1	i	·	2	17	12	3	9	-1
COn1c(-c2ccccc2)nc2ccc(Cl)cc21	i	-16	-4	-217	9	1	-1	-3
COc1cccc(CC(=O)OCc2csc(CC(=O)Nc3ccccc3C)n2)c1	·	8	·	-16	·	0	2	3
COc1ccc(OC)c(NC(=O)CSc2n[nH]c(-c3cccnc3)n2)c1	i	-6	-9	6	1	-1	-2	-11
COc1ccc(S(=O)(=O)N2CCCCC2)cc1NC(=O)c1ccc(C)cc1	·	-10	·	7	·	8	3	-15
CNS(=O)(=O)c1cn(CC(=O)N(C)Cc2ccccc2)cc1S(=O)(=O)NC	i	-13	-2	10	-3	-5	-3	-5
CCNC(=S)NNC(=O)CSc1nc2ccccc2n1C	i	·	-8	6	-10	-1	0	-6
COC(=O)CC1(c2cccc3ccccc23)C(=O)c2ccccc2C1=O	i	-12	-6	·	-7	3	-5	6
O=[N+]([O-])c1ccc(N2CCN(c3ccccc3Cl)CC2)cn1	i	·	-3	46	5	1	-4	25
O=C(CSc1nc2ccccc2o1)Nc1ccc(N2CCOCC2)c(Cl)c1	i	·	-8	-69	1	1	-4	0
CCOc1ccc(S(=O)(=O)N2CCN(Cc3ccc4c(c3)OCO4)CC2)cc1Cl	i	-3	-9	-3	8	0	2	·
COC(=O)[C@]1(Cc2ccccc2)N[C@H](CN(C)S(=O)(=O)c2ccc(C)cc2)[C@@H]2C(=O)N(Cc3ccccc3)C(=O)[C@@H]21	·	-8	·	1	·	-5	-7	·

At a glance, some entries already given.
SMILES	Rce1 inh	UUG fidelity	eIF4H FP inh	HIV Env fusion	PABP polyA inh	MT1-MMP act inh	MT1-MMP act inh RFP	CSC inhib	others
O=C(CSc1nc2ccccc2o1)Nc1ccc(N2CCOCC2)c(Cl)c1	i	·	-8	-69	1	1	-4	0
CCOc1ccc(S(=O)(=O)N2CCN(Cc3ccc4c(c3)OCO4)CC2)cc1Cl	i	-3	-9	-3	8	0	2	·
COC(=O)[C@]1(Cc2ccccc2)N[C@H](CN(C)S(=O)(=O)c2ccc(C)cc2)[C@@H]2C(=O)N(Cc3ccccc3)C(=O)[C@@H]21	·	-8	·	1	·	-5	-7	·

The results go on.
SMILES	Rce1 inh	UUG fidelity	eIF4H FP inh	HIV Env fusion	PABP polyA inh	MT1-MMP act inh	MT1-MMP act inh RFP	CSC inhib	others
Cc1nc(NCCc2ccc(F)cc2)c2nnn(Cc3ccccc3)c2n1	·	-12	0	-8	9	3	1	-5
COc1cc2c(cc1O)[C@H](Cc1ccc(Oc3cc(C[C@@H]4NCCc5cc(OC)c(O)cc54)ccc3O)cc1)NCC2	i	·	?	·	0.1*	·	·	10	PABP polyA inh retest=91*
CCOc1ccc2oc(C(=O)OCC(=O)NC3CC3)c(C)c2c1	i	-8	-1	-5	2	-2	-3	4
Cc1ccc(CCNC(=O)C2CCN(S(=O)(=O)c3ccc4nc5c(c(C(=O)O)c4c3)CCCC5)CC2)cc1	i	-7	-6	6	21	-2	2	0
O=C(CSc1nnc(Cc2cccs2)n1-c1ccccc1)NCc1ccc2c(c1)OCO2	i	-13	-7	30	1	1	2	60
O=C(/C=C/c1cccc(F)c1)OCC(=O)N1CCCC1	·	0	·	3	·	-7	-4	3
O=C(Nc1ccc(S(=O)(=O)NCc2ccco2)cc1)c1ccc2ccccc2n1	i	-11	-6	37	-8	14	-2	-4
O=C(O)CCC(=O)N1N=C(c2ccc(Br)cc2)CC1c1ccc(Br)cc1 (stereo unspecified)	i	-24	1	8	-2	-1	-2	14
N#Cc1ccc(OCc2nnc(SCC(=O)N3CCCc4ccccc43)n2-c2ccccc2)cc1	i	-9	1	-56	2	-6	-9	-11
CC(=O)c1c(C)n(C)c2ccc(OC(=O)c3ccc([N+](=O)[O-])cc3)cc12	i	·	3	-22	7	3	1	-13
COc1ccc(C2(C(=O)Nc3cc(C)on3)CCOCC2)cc1	i	1	-5	·	3	-1	5	-5
CCOC(=O)c1cc2c(=O)n3ccccc3nc2n(CCOC)c1=NC(=O)c1ccncc1	i	-18	-9	?	9	0	-2	3
COC(=O)c1cc(C(=O)OCC(=O)Nc2ccc(N3CCOCC3)cc2)cc([N+](=O)[O-])c1	·	-22	·	-3	·	1	0	-15
CC(C)(C)SC(=O)C[C@@H]1NS(=O)(=O)OC2CCCCC21 (stereo partly specified)	i	-15	93	3	47	-2	-3	9	eIF4H FP inh retest=6;PABP polyA inh retest=-3
CC1(C(=O)NS(=O)(=O)c2ccc(Cl)cc2)CCN1C(=O)Cc1cccc2ccccc12 (stereo unspecified)	·	0	·	17	·	1	0	·
Cc1ccc(C(=O)NNC(=O)Cc2cccs2)cc1	i	-8	4	-17	-1	3	4	-16
CCOC(=O)N1CCc2[nH]c3ccc(C)cc3c2C1	i	1	6	-26	15	-5	-8	3
Cc1cc(NC(=O)CSc2nc3ccccc3n2CCC#N)no1	i	·	-5	8	30	2	5	5
O=C(CN(CCc1ccccc1)C(=O)CNS(=O)(=O)c1ccccc1)NCC1CCCO1 (stereo unspecified)	i	-6	5	·	1	4	5	11
Cc1cccc(OCC(=O)NNC(=O)c2ccc([N+](=O)[O-])cc2)c1	i	-10	-14	8	20	3	5	·
O=C(Nc1nc2ccccc2[nH]1)C12CC3CC(CC(C3)C1)C2	i	-11	-5	·	-11	-6	-14	8
CCN1CCN(c2cc(C)c3cc(NC(=S)N4CCOCC4)ccc3n2)CC1	i	·	7	1	8	2	1	3
Cc1ccc(S(=O)(=O)N2CCN(CC(=O)N/N=C/c3ccc(C)o3)CC2)cc1	i	·	-12	-3	-16	4	4	-8
CCN(CC)Cc1c(-c2ccccc2)[nH]c2ccc(C)cc2c1=O	i	-8	2	2	-3	-1	1	-11
COC(=O)N1C(=O)[C@](c2ccc(Cl)cc2)(C(C)C)N1C(=O)OC	i	-11	-11	10	10	-5	3	25
COc1ccccc1C(C)NS(=O)(=O)c1ccc(Cl)nc1 (stereo unspecified)	i	-7	·	·	·	-4	2	2
Cc1ccc(C(C)NC(=O)Cn2nc(C)c([N+](=O)[O-])c2C)cc1 (stereo unspecified)	i	5	-4	-26	-9	4	1	5
CCN(CC)C(=O)c1cccc(NC(=O)c2ccc3c(=O)n4c(nc3c2)CCC4)c1	i	·	·	-12	·	2	3	2
C/C(=N/NC(=O)CNC(=O)c1ccccc1F)c1ccc2c(c1)CCCC2	i	-8	5	1	18	2	3	9
Cc1ccc(N2CC(C(=O)N/N=C/c3cccc([N+](=O)[O-])c3)CC2=O)cc1 (stereo unspecified)	i	·	2	·	-2	1	-1	-6
O=C(NCC1CCCO1)C(=O)NCC1CCCN1S(=O)(=O)c1ccccc1 (stereo unspecified)	i	-19	·	3	·	2	-2	-11
COc1ccc(Cl)cc1NC(=O)COC(=O)/C=C/c1c(C)nn(C2CCS(=O)(=O)C2)c1Cl (stereo unspecified)	i	·	-1	·	-4	3	2	·
CCOc1ccc(NC(=O)CNC(=O)c2nn(-c3ccc(OC)cc3)c(=O)c3ccccc23)cc1	i	-9	1	32	6	3	0	25
O=C(CNC(=O)c1cccs1)NC1=NCCS1	i	-19	-11	·	0	-4	-3	-11
CCOC(=O)N1CCN(Cc2nc3c(c(=O)n(C)c(=O)n3C)n2Cc2ccccc2C)CC1	i	1	-9	-36	-5	0	7	-17
CN1C(=O)CC(N2CCN(C(c3ccccc3)c3ccccc3)CC2)C1=O (stereo unspecified)	i	-16	-10	7	-1	-9	-5	16
Nc1cc(=O)[nH]c(=O)n1Cc1ccco1	i	-17	11	-41	9	0	6	·
CCS(=O)(=O)Nc1ccc(C2=NN(S(C)(=O)=O)C(c3cccs3)C2)cc1 (stereo unspecified)	?	·	16	1	4	-2	3	-13
N#Cc1c(C(F)(F)F)cc(-c2ccccc2)nc1SCC(=O)Nc1sc2c(c1C#N)CCC2	i	-10	72	·	56*	-210	-7	7	eIF4H FP inh retest=37;PABP polyA inh retest=53*
